# Screening data deposited in PubChem BioAssay by Broad Institute.
# RanGTP-Imp inh – inhibitors of RanGTP-importin-beta interaction, primary screen, biochemical, FRET, CFP-Ran, YFP-importin-beta, homogeneous. Ran GTPase (GTP-bound) - importin-beta complex. cell-free CFP-Ran/YFP-importin-beta FRET ratio. inhibition, % (concentration not given with the values). 300,000 compounds, 1.1% hits;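 active = most replicates above 15%; inconclusive = exactly half above 15%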;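 also: 0% = DMSO wells and 100% = Ran loaded with GDP instead of GTP; wells of about 40 µL received 100 nL stock; the first replicate is given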
# FGF22 binding – binders of human FGF22 protein, primary screen, FGF22 synaptogenesis inhibitor project, biophysical, thermal shift, single point; calls only at 9.99 µM; recombinant FGF22 thermal shift, SYPRO orange fluorescence; percent of sucrose octasulfate shift, DMSO zero; Fibroblast growth factor 22 (Homo sapiens), Q9HCT0; 340,000 compounds, 1.5% hits;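 active = melting point raised past a set limit in the mean and every replicate; inconclusive = no clear call; three in four hits are not shown here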
# Target sequence (Q9HCT0 whole entry, looked up): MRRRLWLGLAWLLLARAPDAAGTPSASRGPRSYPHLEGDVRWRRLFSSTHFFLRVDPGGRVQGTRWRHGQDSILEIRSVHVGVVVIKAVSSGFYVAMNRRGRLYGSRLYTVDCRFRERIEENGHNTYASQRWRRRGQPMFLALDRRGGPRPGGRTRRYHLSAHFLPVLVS
# Ecoli rRNA inh – reduced GFP signal of wild-type E. coli, primary screen, bacterial rRNA inhibitor project, GFP/RFP fluorescence, OD600, single point | E. coli WT GFP vs humanized-ribosome RFP mutants, 24 h; stronger effect = lower value; DMSO median 0, no signal -100 | GFP signal change (wild-type ribosome), % (test concentration not listed) | 350,000 compounds, 1.6% hits | AID 720706, 2013;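 active = significant combined selectivity score with lowered wild-type GFP, culture density cut under 30%, mutant RFP and density less affected; inactive = any of these conditions unmet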; also: one replicate is shown; some compounds called inactive have numbers as strong as hits
# Beta cell apopt – inhibitors of cytokine-induced beta cell apoptosis, primary screen, luminescence; 300,000 compounds, 0.8% hits; protection from apoptosis, % (concentration not given with the values); INS-1E cytokine-induced death, ATP luminescence, 48 h; percent of positive-control rescue, neutral wells zero; AID 435005, 2010;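 active = all replicates at 75% or more, or half of them and the mean; inconclusive = half reach 75% but not the mean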;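 also: 0% = cytokine-treated negative control wells and 100% = positive control rescue; higher means more ATP so stronger rescue from cytokine killing; wells of about 40 µL received 100 nL stock; the first replicate is given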
# MLL AF4-AF9 inh – inhibitors of AF4 peptide binding to AF9, primary screen, biochemical, AlphaScreen, biotin-AF4 peptide, FLAG-AF9, single point. Protein AF-9 (Homo sapiens), P42568. inhibition, % at 10 µM. 350,000 compounds, 0.47% hits. AID 651704, 2012;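 active = every replicate reaching a set inhibition limit, whatever the replicate mean, cut at about 25% in these data; inconclusive = mean inhibition reaches that limit but some replicates miss it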;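 also: 0% = plate neutral control median and 100% = total signal loss; the record names both 10 and 1 µM as test concentration; the first replicate is given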
# Target sequence (P42568 whole entry, looked up): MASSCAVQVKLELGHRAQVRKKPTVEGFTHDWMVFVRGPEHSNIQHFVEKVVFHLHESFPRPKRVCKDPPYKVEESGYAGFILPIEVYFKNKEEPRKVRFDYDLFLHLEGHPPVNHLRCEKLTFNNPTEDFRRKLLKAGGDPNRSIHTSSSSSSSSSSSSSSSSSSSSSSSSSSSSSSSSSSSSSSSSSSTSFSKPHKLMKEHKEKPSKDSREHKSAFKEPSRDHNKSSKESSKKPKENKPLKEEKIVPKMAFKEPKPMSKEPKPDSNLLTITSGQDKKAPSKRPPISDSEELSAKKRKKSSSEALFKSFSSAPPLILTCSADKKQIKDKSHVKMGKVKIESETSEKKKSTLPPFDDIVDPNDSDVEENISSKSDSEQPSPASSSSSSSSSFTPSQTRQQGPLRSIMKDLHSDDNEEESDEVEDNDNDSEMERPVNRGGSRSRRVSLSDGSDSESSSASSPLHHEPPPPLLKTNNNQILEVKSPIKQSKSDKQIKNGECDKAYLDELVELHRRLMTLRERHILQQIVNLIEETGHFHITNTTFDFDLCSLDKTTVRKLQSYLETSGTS
# ALR inh – inhibitors of human ALR sulfhydryl oxidase, primary screen, biochemical, H2O2 detection, HRP-luminol luminescence, single point; purified ALR, DTT oxidation; 290,000 compounds, 3.8% hits; AID 485317, 2010; FAD-linked sulfhydryl oxidase ALR (Homo sapiens), P55789; inhibition, % (concentration not given with the values);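 active = mean and each replicate at 75% or more; inconclusive = only one of the two met; inactive = neither met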;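 also: stock transfer was 7.5 nL into about 7.5 µL; 0% = neutral wells and 100% = wells with inactivated enzyme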
# Target sequence (P55789 whole entry, looked up): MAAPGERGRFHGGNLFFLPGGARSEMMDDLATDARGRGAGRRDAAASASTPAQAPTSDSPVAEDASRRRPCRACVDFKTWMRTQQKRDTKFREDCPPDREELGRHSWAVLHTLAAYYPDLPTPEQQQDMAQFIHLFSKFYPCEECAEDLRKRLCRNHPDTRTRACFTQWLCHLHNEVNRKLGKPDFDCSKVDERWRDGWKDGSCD
# Calb FLC – C. albicans growth inhibition with fluconazole, primary screen, CaCi-2 strain, Alamar Blue fluorescence | C. albicans CaCi-2 (fluconazole-resistant clinical isolate) + fluconazole, 48 h | growth inhibition, % (test concentration not listed) | 300,000 compounds, 0.57% hits;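 active = most replicates above 75%; inconclusive = exactly half above 75%; inactive = most below 75%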;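 also: all wells also contain fluconazole at 8 µg/ml as a sub-toxic cotreatment; 0% = median of DMSO wells and 100% = median of geldanamycin control wells; wells of about 8 µL received 7.5 nL stock; the first replicate is given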
# T cruzi repl – inhibitors of intracellular T. cruzi growth, primary screen, luminescence, NIH3T3 host cells | T. cruzi beta-gal in NIH3T3, 90 h | 300,000 compounds, 1.4% hits | inhibition, % (test concentration not listed);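 active = mean inhibition across valid replicates above about 55%, limit read from the data; inconclusive = mean below that limit but half or more replicates reach it; inactive = mean below it, under half of replicates reach it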;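 also: signal also drops with host cell toxicity which is not excluded here; 0% = plate median of DMSO wells and 100% = zero luminescence signal; higher percent means less beta-gal luminescence so fewer parasites; stock transfer was 50 nL into about 50 µL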
# Ecoli rRNA inh OD600 – also measured in Ecoli rRNA inh; calls as there; OD600 change, %; measured here: OD600 growth;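 optical density of the mix in the first replicate; 0 = DMSO median and -100 = no signal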
# Ecoli rRNA inh RFP – recorded beside Ecoli rRNA inh, whose call it bears; RFP signal change, %; measured here: RFP humanized mutant strains;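 first replicate; 0 = DMSO median and -100 = no signal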
# Numbers without * were called inactive; i = inactive; ? = inconclusive; nt = not tested or not shown. The list is partial, so the mix of outcomes need not match the whole.
SMILES,RanGTP-Imp inh,FGF22 binding,Ecoli rRNA inh,Ecoli rRNA inh OD600,Ecoli rRNA inh RFP,Beta cell apopt,MLL AF4-AF9 inh,ALR inh,Calb FLC,T cruzi repl
COc1ccc(-c2nc(Cn3c(SCc4ccc(C)cc4)nc4ccncc43)c(C)o2)cc1OC,-0.7,i,4.4,-12.4,7.5,-0.5,-1.6,nt,-12.5,48.5
O=C1CCCCCN1Sc1ccccc1,-2.7,nt,nt,nt,nt,nt,nt,-17.8,2.4,1.0
C=CCOC(=O)C1=C(C)Nc2nnnn2C1c1ccc(OC)cc1OC (stereo not drawn),-2.6,nt,nt,nt,nt,-2.4,nt,6.6,-3.9,5.0
CCN(CC)C(=O)C1CCCN(C(=O)CCn2nnnc2CN2CCOCC2)C1 (stereo not drawn),-0.3,i,3.9,3.1,0.0,nt,-2.7,-10.6,1.7,0.5
O=C1N/C(=N/N=C/c2ccc(F)cc2)SC1c1ccccc1 (stereo not drawn),1.4,i,6.4,0.1,-0.9,-8.8,0.0,-6.5,7.0,-4.0
CCOC(=O)c1c(-c2ccccc2)nc2c(C)cccn12,-0.8,nt,nt,nt,nt,-1.9,nt,nt,-7.9,23.5
O=C(COC(=O)c1cccc(S(=O)(=O)N2CCN(c3ccccc3)CC2)c1)NCc1ccco1,-2.6,nt,nt,nt,nt,-8.3,nt,3.2,-6.5,-17.5
CCOC(=O)N1CCN(S(=O)(=O)c2ccc(OCC)c3ccccc23)CC1,0.5,nt,nt,nt,nt,2.2,nt,-11.9,-0.5,27.5
CCOc1ccccc1CNCC1CCCO1 (stereo not drawn),2.0,i,-3.2,8.0,-3.2,2.0,2.1,-20.2,16.5,-13.8
O=C(CCN1C(=O)c2ccncc2C1=O)Nc1ccc(F)cc1,0.8,nt,nt,nt,nt,-2.3,nt,-12.4,-1.1,-6.3
CCCC12CN3CC(CCC)(CN(C1)C3C(O)C(O)C(O)CO)C2=O (stereo not drawn),-0.3,nt,nt,nt,nt,-7.0,nt,-18.2,-13.3,-20.5
Cc1ccc(C)c(Cn2nnc3c(=O)[nH]c(C4CCN(C(=O)c5ccco5)CC4)nc32)c1,6.4,i,-4.9,-8.6,4.4,1.6,-0.3,9.7,3.5,5.4
COc1ccc2cc(C#N)c(NC(C)C)nc2c1,0.0,nt,nt,nt,nt,5.6,nt,-12.0,-1.8,-4.2
CCn1c(SCC(=O)Nc2nc3ccccc3s2)nnc1-c1ccc(OC)cc1,2.9,nt,nt,nt,nt,nt,nt,-43.9,-1.5,-9.5
CC1CCCCC12NC(=O)N(CC(=O)NCc1ccccc1)C2=O (stereo not drawn),nt,i,4.7,18.7,-2.2,-1.4,-0.8,0.1,nt,nt
O=C(Nc1nncs1)c1ccc(Br)c(S(=O)(=O)N2CCCC2)c1,1.2,nt,nt,nt,nt,2.4,nt,-9.7,0.4,-1.3
CN(C(=O)COC(=O)c1cc(S(=O)(=O)N2CCCCC2)ccc1N1CCOCC1)C1CCS(=O)(=O)C1 (stereo not drawn),-2.3,i,3.1,-8.1,-10.4,1.9,-2.3,-4.6,-0.3,3.0
Cc1ccc(-n2c(Cc3cccs3)nnc2SCC(=O)Nc2ccc(S(N)(=O)=O)cc2)cc1,1.4,nt,nt,nt,nt,-9.7,nt,1.5,5.5,-1.6
COc1cc(OC)cc(C(=O)Oc2c(CN3CCOCC3)cc(Cl)c3cccnc23)c1,?,nt,-9.8,-2.2,1.4,47.4,7.5,1.4,112.8*,48.7
O=C(Nc1ccc(S(=O)(=O)N2CCCC2)cc1)c1ccc(CN2CCc3ccccc3C2)cc1,-1.9,nt,nt,nt,nt,4.5,nt,-7.3,-3.9,6.4

# Sorted by molar mass (lowest first): 3 of the compounds above.
SMILES,RanGTP-Imp inh,FGF22 binding,Ecoli rRNA inh,Ecoli rRNA inh OD600,Ecoli rRNA inh RFP,Beta cell apopt,MLL AF4-AF9 inh,ALR inh,Calb FLC,T cruzi repl
O=C(CCN1C(=O)c2ccncc2C1=O)Nc1ccc(F)cc1,0.8,nt,nt,nt,nt,-2.3,nt,-12.4,-1.1,-6.3
COc1ccc(-c2nc(Cn3c(SCc4ccc(C)cc4)nc4ccncc43)c(C)o2)cc1OC,-0.7,i,4.4,-12.4,7.5,-0.5,-1.6,nt,-12.5,48.5
CN(C(=O)COC(=O)c1cc(S(=O)(=O)N2CCCCC2)ccc1N1CCOCC1)C1CCS(=O)(=O)C1 (stereo not drawn),-2.3,i,3.1,-8.1,-10.4,1.9,-2.3,-4.6,-0.3,3.0

# (list continues)
SMILES,RanGTP-Imp inh,FGF22 binding,Ecoli rRNA inh,Ecoli rRNA inh OD600,Ecoli rRNA inh RFP,Beta cell apopt,MLL AF4-AF9 inh,ALR inh,Calb FLC,T cruzi repl
Cc1ccc(NC(=O)NNC(=O)C2CCN(Cc3ccc(F)cc3Cl)CC2)cc1,-3.1,i,9.7,18.6,-0.4,-3.7,-0.6,-1.2,6.8,-4.5
CCCCc1nc(C(N)=O)c2[nH]c(=O)n(-c3ccc(OC)cc3OC)c2n1,2.0,nt,nt,nt,nt,0.0,nt,-4.5,-1.4,8.1
Oc1c(-c2cc(-c3ccco3)[nH]n2)ccc2ccccc12,-2.1,nt,nt,nt,nt,8.5,nt,nt,-34.8,-3.9
Cc1cccc(CN2CCN(C(=O)CCc3nnc(C4CCCCC4)o3)CC2)c1,-0.2,i,6.3,-2.7,-3.0,2.0,-0.2,1.3,3.0,17.8
COc1ccc(-c2nc3ncccn3c2Nc2ccccc2)cc1,4.0,i,14.9,16.5,1.1,-2.0,-0.8,2.5,-2.0,14.4
Cc1nn(CCCC(=O)NCCc2ccccc2)c(C)c1[N+](=O)[O-],0.8,i,7.3,7.1,2.4,3.1,3.4,-10.9,-5.0,-0.8
CCCN(Cc1cc2cc(C)ccc2[nH]c1=O)S(C)(=O)=O,?,nt,nt,nt,nt,1.4,nt,nt,-0.5,-0.1
O=C(Cn1cnc2ccccc21)N1CCN(S(=O)(=O)c2ccccc2)CC1,-2.0,i,6.3,5.2,0.7,1.2,-7.7,-16.3,-0.3,-1.5
CCOc1ccc(C(=O)N(CN2CCCC2=O)c2ccccc2)cc1,-2.2,nt,2.3,6.9,1.1,-1.8,nt,-11.2,6.5,6.0
Clc1ccccc1OCc1nnc(-c2ccccc2Br)o1,?,nt,nt,nt,nt,3.5,nt,-2.8,7.9,-0.6
OCC[C@@H]1C[C@H](O)[C@@H](O)[C@]2(CCCO2)O1,-1.9,i,14.0,28.4,3.8,-13.4,-6.7,5.3,4.5,6.2
O=C(O)CN1C(=O)C2C3CC(C2C1=O)C1C(c2ccccc2)c2sc(=O)[nH]c2SC31 (stereo not drawn),65.3*,nt,nt,nt,nt,3.1,nt,nt,3.0,-3.0
Nc1ccc(C(=O)N/N=C\C=C\c2cccc([N+](=O)[O-])c2)cc1,0.7,nt,nt,nt,nt,-6.1,nt,-14.2,-19.1,2.5
COc1ccc(C2NC(=S)NC(C)=C2C(=O)Nc2ccccn2)cc1 (stereo not drawn),2.0,i,-4.2,5.4,-2.2,-0.3,-1.4,-4.6,-14.5,-8.6
Cc1ccnc2nc(C(=O)Nc3cc(Cl)ccc3N3CCOCC3)nn12,-0.9,nt,nt,nt,nt,4.2,nt,-31.1,?,13.6
CCOC(=O)c1c(NC(=O)CSc2nnnn2-c2ccccc2OCC)sc2c1CC(C)(C)NC2(C)C,-0.6,i,-0.9,-2.1,0.5,37.5,14.1,-38.0,-2.2,56.6*
O=C(CCCOc1ccc(Cl)cc1Cl)N1CCc2ccccc2C1,8.8,nt,nt,nt,nt,-1.3,nt,2.2,-0.9,-2.0
CCc1nnc(NS(=O)(=O)c2ccc(NCc3ccccc3O)cc2)s1,0.3,i,-8.9,-1.2,-1.7,-0.4,-0.5,48.9,-10.4,-4.0
O=C1CN(C(=O)c2ccccc2)C(c2ccc(F)cc2)c2cc(Br)ccc2N1 (stereo not drawn),2.9,i,-16.1,-26.9,-0.4,6.4,-1.9,-3.8,3.8,-0.2
O=C(NC1CCCCC1)N1CCc2ccccc21,-1.6,nt,nt,nt,nt,2.4,nt,1.1,-4.5,-2.1
Nc1ccc(-c2sc(N)nc2-c2ccccc2)cc1,?,nt,nt,nt,nt,nt,nt,99.0*,3.2,11.9
Cc1ccc(CN2CCN(Cc3cnc(C)[nH]3)CC2CCO)cc1 (stereo not drawn),-1.1,i,14.4,4.1,1.1,-6.7,0.5,6.6,8.4,7.9
C=CCOc1ccc2ccccc2c1CNn1cn[nH]c1=S,1.3,i,-20.0,-18.1,-1.8,0.9,-3.4,nt,24.0,-6.3
COc1cc(OC)cc(C2=NC3(CCC(C)CC3)NC2=S)c1 (stereo not drawn),-2.2,i,-0.9,0.5,-2.1,0.5,8.4,5.6,-7.8,-2.4
O=C(CC1NCCNC1=O)Nc1ccccc1 (stereo not drawn),-1.4,i,9.3,5.0,-3.9,-15.3,-3.5,-26.9,10.4,-7.0
Cc1ccc(N(Cc2ccc(C(=O)Nc3c(C)n(C)n(-c4ccccc4)c3=O)cc2)S(C)(=O)=O)cc1C,2.8,i,-4.7,-9.2,-3.8,-0.1,0.8,3.5,3.7,1.2
CC(NC(=O)COC(=O)[C@@H]1CCCN1S(=O)(=O)c1ccccc1F)C12CC3CC(CC(C3)C1)C2 (stereo partly drawn),3.4,nt,nt,nt,nt,1.2,nt,-3.9,-0.3,-2.9
Cc1cccc(C)c1NC(=O)C1(NC(=O)C2CCC(=O)N2)CCCCC1 (stereo not drawn),5.2,nt,nt,nt,nt,nt,nt,-0.3,3.0,-18.8
CN(c1ccccc1)S(=O)(=O)c1cccc(NC(=O)CSc2nncn2C)c1,0.8,i,5.7,-3.3,-3.1,-3.6,3.1,-10.7,-8.8,-7.1
CCOC(=O)c1c(NC(=S)Nc2ccccc2C)sc2c1CCC2,-2.2,i,0.7,0.2,-1.0,6.2,-6.6,-0.6,-16.4,-7.4
Cc1ccc(-n2cnc(=O)c3cccnc32)cc1,4.0,nt,nt,nt,nt,-3.7,nt,-19.7,-13.7,-9.3
CCN(CC)c1nc2cc(OC)ccc2cc1C#N,8.0,nt,nt,nt,nt,6.8,nt,17.4,4.9,9.1
